# D2 PAM = Beta-Arrestin HTS for Positive Allosteric Modulators of the Human D2 Dopamine Receptor: Potentiators. DiscoveRx D2 beta-arrestin cells, luminescence, 90 min; 100% = 57 uM dopamine signal. potentiation, % (test concentration not listed). AID 624464, 2012. 0.23% of 360,000 active. D(2) dopamine receptor (Homo sapiens), P14416; active = potentiation of 50% or more; inconclusive = 30% to 50%; inactive = 30% or less;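 note: compound concentration not given in the record; tested on top of an EC20 dose of dopamine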
#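 D2 cells co-treated with compound plus 50 nM dopamine (EC20) for 90 min at 37 deg C to detect potentiation. Beta-arrestin recruitment was read as enzyme-fragment luminescence after 1 h at ambient temperature. Full response was set by 57 uM dopamine.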
# TRPML1 blocker = qHTS for Inhibitors of the Human Mucolipin Transient Receptor Potential 1 (TRPML1) | TRPML1-inducible cells, Ca2+ dye fluorescence, FDSS; active compounds read low; inhibition of EC80 agonist-evoked calcium signal | activity change, negative = inhibition, % (no concentration beside the values) | 0.02% of 390,000 active; in the data active means activity change below about -50%; inconclusive means about -30% to -50%; inactive means above about -30%;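 note: stimulus is agonist 54-4 at its EC80 concentration; % is set by controls: 0 for no effect and ±100 for the full control effect; compound concentration not given in the record; the text of the record puts the active cut at -80%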
#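 TRPML1-DL cells, Tet-induced overnight (~16 h, 37 °C) at 1,500 cells/well, were loaded with Ca8 no-wash dye plus quencher for 45-90 min at room temperature. Compounds were pinned during FDSS kinetic reading; agonist 54-4 at EC80 (4 uM final) then added.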
# CtBP-E1A inh = qHTS Assay for Inhibitors of the CtBP/E1A Interaction | CtBP / adenovirus E1A interaction (AlphaScreen) | AlphaScreen GST-E1A/His-CtBP binding, 1536-well; active compounds read low; control for the full effect not named in the record | activity change, % (concentration not given with the values) | 0.49% of 340,000 active; in the data active means activity change below about -65%; inconclusive means about -30% to -65%; inactive means above about -30%; note: % is set by controls: 0 for no effect and ±100 for the full control effect
#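 Homogeneous bead-based format: GST-tagged E1A captured on glutathione donor beads, His-tagged CtBP on nickel acceptor beads; compounds precede bead addition by 2 h at 37 °C.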
# TRPV1 PAM = HTS Assay for Compounds that Act as Potentiators of the Vanilloid Receptor 1. Transient receptor potential cation channel subfamily V member 1 (Homo sapiens), Q8NER1. TRPV1-expressing cells, Fluo-8 calcium influx, capsaicin EC20 potentiation; host cell line not named in the record; control for the full effect not named in the record. potentiation, % at 8.33 µM. 0.02% of 320,000 active. AID 540277, 2011; active means potentiation above 80%; inconclusive means 30% to 80%; inactive means below 30%; note: 0% is about no effect
#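 Cells expressing TRPV1 were dye-loaded with Fluo-8 and read kinetically: 10 s baseline, 3 min after compound (agonist portion), then 2 min after EC20 capsaicin (allosteric enhancer portion). Calcium-bound dye fluorescence at 480/520 nm.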
# TRPML1 agonist = qHTS for Agonists of the Human Mucolipin Transient Receptor Potential 1 (TRPML1); activation, % (concentration not given with the values); TRPML1-expressing cells, Ca2+ dye fluorescence, FDSS; host cell line not named in the record; reference of the full effect not given here; 0.12% of 410,000 active; in the data active = activation above about 50%; inconclusive = about 30% to 50%; inactive = below about 30%; note: 0% is about no effect; the text of the record puts the active cut at 80%
#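 Cells: TRPML1-DL, 1X Tet inducer, ~16 h at 37 degrees C/5% CO2. Dye: ABD Ca8 no-wash + quencher, 45-90 min RT. Read: 10 s baseline, compound add, 110 s agonist phase; 54-4 EC80 (4uM final), 110 s antagonist phase.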
# Six1-Eya2 inh = qHTS Assay for Inhibitors of the Six1/Eya2 Interaction; AlphaScreen GST-Six1/His-Eya2 binding, biochemical; active compounds read low; control for the full effect not named in the record; activity change, % (concentration not given with the values); Homeobox protein SIX1 (Homo sapiens) + Protein phosphatase EYA2 (Homo sapiens), …; 0.56% of 360,000 active; in the data active = activity change below about -65%; inconclusive = about -30% to -65%; inactive = above about -30%; note: % is set by controls: 0 for no effect and ±100 for the full control effect
# Target sequence (O00167 whole entry, looked up): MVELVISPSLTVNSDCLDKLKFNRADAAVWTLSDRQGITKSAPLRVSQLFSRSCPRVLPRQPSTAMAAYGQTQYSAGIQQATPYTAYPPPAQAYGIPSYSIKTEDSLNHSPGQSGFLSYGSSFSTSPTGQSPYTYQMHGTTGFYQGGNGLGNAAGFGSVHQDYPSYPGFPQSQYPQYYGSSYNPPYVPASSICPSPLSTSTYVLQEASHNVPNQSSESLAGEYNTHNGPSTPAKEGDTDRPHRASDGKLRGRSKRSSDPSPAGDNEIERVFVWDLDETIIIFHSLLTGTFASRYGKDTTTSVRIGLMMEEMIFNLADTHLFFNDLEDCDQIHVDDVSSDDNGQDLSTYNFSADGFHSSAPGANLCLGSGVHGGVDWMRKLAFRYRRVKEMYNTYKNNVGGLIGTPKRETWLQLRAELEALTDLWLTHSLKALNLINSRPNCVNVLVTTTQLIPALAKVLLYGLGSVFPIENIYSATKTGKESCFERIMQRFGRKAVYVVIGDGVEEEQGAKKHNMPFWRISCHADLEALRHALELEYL
# Target sequence (Q15475 whole entry, looked up): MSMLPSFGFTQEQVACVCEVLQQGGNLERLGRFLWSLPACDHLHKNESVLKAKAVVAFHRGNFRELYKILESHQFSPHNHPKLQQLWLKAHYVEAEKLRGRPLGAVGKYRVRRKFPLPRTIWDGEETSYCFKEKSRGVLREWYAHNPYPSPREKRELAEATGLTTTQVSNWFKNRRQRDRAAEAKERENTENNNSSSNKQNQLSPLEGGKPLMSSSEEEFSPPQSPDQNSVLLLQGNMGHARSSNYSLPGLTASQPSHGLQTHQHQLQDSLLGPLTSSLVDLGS
#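 Compounds are tested against tagged Six1 and Eya2 proteins bridged by glutathione donor and nickel acceptor beads; after a one-hour incubation at 37 °C without light, AlphaScreen emission is recorded.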
# Starred values were filed as active, the others as inactive; ? = inconclusive; . = no result given; & = joins results of further samples.
SMILES,D2 PAM,TRPML1 blocker,CtBP-E1A inh,TRPV1 PAM,TRPML1 agonist,Six1-Eya2 inh
CC(C)CCNC(=O)c1ccc2c(c1)N(C)C(=O)c1ccccc1S2,-23,7&10,-2,-17,11&3.8,-2
Cc1ccc(S(=O)(=O)Cn2nnnc2C(C)N2CCN(C(=O)c3ccco3)CC2)cc1 (centres undefined),0,6,5,3,0.4,7
O=C(Nc1ccc(F)cc1)C(Sc1nnc2ccccn12)c1ccccc1 (centres undefined),-18,10,0,9,1.9,10
CC(C)(C)NC(=O)c1ccncc1,-1,17,6,1,0.5,8
Clc1ccc(CN2CCN(/N=C/c3cccnc3)CC2)cc1,-12,-2,0,3,-0.7,-2
CC1(C)Cc2nc3sc4c(OCc5ccccc5)ncnc4c3cc2CO1,-7,-11,-3,-8,2.5,3
Cc1cccc(C(=O)Nc2ccc(NC(=O)Cc3ccc(Cl)cc3)cc2)c1,-11,-14,-1,-8,0.5,3
COc1ccc2[nH]c(=O)c(CN(C)C(=O)COc3ccccc3)cc2c1,7,17,0,17,-0.5,8
Nc1cc[n+](CC(=O)Nc2ccccc2)cc1,-8,8,3,2,0.3,8
COC(=O)c1ccc(Cn2c(C)c(C(=O)NCc3ccc(C#N)cc3)sc2=O)o1,-5,.,-21,.,1.0,1
CCCc1[nH]nc2c1C(c1ccc(OCCN3CCOCC3)c(OC)c1)C(C#N)=C(N)O2 (centres undefined),-27,38,2,-2,0.8,0
COc1cccc(NC(=O)Nc2nnc(CC(=O)Nc3ccccc3)s2)c1,-10,1,.,7,-0.6,0
CCOc1ccccc1NC(=O)COC(=O)c1nc2nccc(C)n2n1,-4,-2,7,.,-0.7,-4
Cc1csc(=O)n1CC(=O)Nc1ccc(C(C)C)cc1,-27,14,0,?,1.5,24
O=C(CS(=O)(=O)c1c[nH]c2ccccc12)NC1CCCCC1,-5,8,2,-21,-0.8,6
CN(C)CCO/N=C(\c1ccc(Br)cc1)c1cccnc1,-13,1,2,.,1.2,4
Cc1ccc(O)c(Nc2nc(-c3ccccc3)nc3ccccc23)c1,-6,5,-2,1,-0.4,15
O=C(COC(=O)COc1ccccc1)NC1CCCc2ccccc21 (centres undefined),0,6,.,-15,-1.3,-6
CCC1=C(OC(=O)N(CC)CC)N2C(=O)OC(=NCC3CC3)[C@]2(C)[C@H]2C1=CC[C@H]1C(=O)N(C)C(=O)[C@H]12,13,-1,1,?,-0.6,4
CCOC(=O)c1[nH]c2ccccc2c1NC(=O)c1ccc2c(c1)OCO2,-3,-20,0,.,0.0,7
CCOc1ccc(CNc2ccc3c(c2)ncn3C)cc1,-1,5,5,7,-1.0,-5
Cc1ccc(Sc2ccncc2S(N)(=O)=O)cc1,-6,6,0,-1,2.2,0
CC(Cl)C(=O)Nc1cc(C(C)(C)C)nn1-c1ccccc1 (centres undefined),-3,0,.,0,0.4,2
O=C(CNc1cccc(Cl)c1)c1ccc(Cl)cc1,-23,3,6,-10,-0.3,4
CCCC[C@@H]1C[C@H]1[C@@H](NC(=O)c1cccs1)c1ccc(C(F)(F)F)cc1,-10,14,17,.,1.6,4
Cc1ccc(C(C)(C)C)c(OCCN2CCCC2)c1,-28,27,2,-10,-1.4,-5
CCCOc1cccc(C(=O)N(Cc2cccs2)C2CCS(=O)(=O)C2)c1 (centres undefined),-9,-8,-4,14,-0.5,-16
Cc1ccc(S(=O)(=O)NC2(C(F)(F)F)NC(=O)N(C)C2=O)cc1 (centres undefined),-1,1,6,-9,0.3,4
COC(=O)CSc1nnc(-c2ccco2)n1Cc1ccco1,-5,35,3,-6,1.9,-1
CCN1C[C@@H]2[C@@H]3C(=O)N(C)C(=O)[C@@H]3[C@](Cc3ccccc3)(C(=O)OC)N2C1=NCc1ccccc1,.,-15,0,.,-0.1,7
CCOC(=O)C1(Cc2cccc(OC)c2)CCCN(S(=O)(=O)c2cccnc2)C1 (centres undefined),-7,-25,-13,-10,-0.6,5
CC(=O)Nc1ccc(S(=O)(=O)n2cnc3cc(C)c(C)cc32)cc1,-8,3,17,28,-0.2,10
O=C(NCc1cccs1)c1cc(-c2cccc(Cl)c2)on1,-11,27,-4,1,0.4,1
Cc1cc(Cl)ccc1OCCCC(N)=O,4,-3,8,-3,0.2,6
CC(=O)Nc1ccc(NC(=O)COc2ccc3c(c2)CCC3)cc1,-7,6,-1,-15,1.3,5
Cc1ccc(S(=O)(=O)Nc2ccc3oc(=O)sc3c2)c(C)c1,23,-13,-2,?,0.9,-4
COc1ccc(-n2ncc3c2CC(C)(C)CC3NC(=O)CCC2=NNC(=O)CC2)cc1 (centres undefined),-2,3,7,?,0.3,4
O=C(CSc1nc2ccccc2s1)N1c2ccccc2Sc2ccc(C(F)(F)F)cc21,7,25,3,21,2.3,4
COc1ccc(C)cc1NC(=O)c1[nH]c(C)c(C(C)=O)c1C,-14,10,-4,5,-0.6,-6
Cc1cc(NC(=O)NCc2ccccc2)c(=O)n(Cc2ccccc2F)c1,-5,-6,-6,-22,1.7,2
CN(C)C(CNC(=O)CSC(=S)N1CCCC1)c1ccccc1 (centres undefined),-20,-11,-1,.,1.3,2
CCc1cc(=O)oc2c(C)c(OCC(=O)NCCCN3CCCC3=O)ccc12,-10,-1,-4,4,0.2,-3
Cc1ccc(C(=O)Nc2ccc3c(c2)OCCO3)o1,-7,0,3,-22,0.0,0
CC1CCN(Cc2c(C(=O)N/N=C/c3cc(Br)ccc3O)nnn2-c2nonc2N)CC1,-3,4,-6,-6,0.4,-7
Nc1nc(Nc2ccc(Cl)cc2)nc(NCCO)c1[N+](=O)[O-],-6,25,?,13,2.3,?

# Arranged by molecular weight (descending): three of the compounds above.
SMILES,D2 PAM,TRPML1 blocker,CtBP-E1A inh,TRPV1 PAM,TRPML1 agonist,Six1-Eya2 inh
Cc1ccc(S(=O)(=O)Nc2ccc3oc(=O)sc3c2)c(C)c1,23,-13,-2,?,0.9,-4
O=C(NCc1cccs1)c1cc(-c2cccc(Cl)c2)on1,-11,27,-4,1,0.4,1
Cc1cc(Cl)ccc1OCCCC(N)=O,4,-3,8,-3,0.2,6

# The listing continues:
SMILES,D2 PAM,TRPML1 blocker,CtBP-E1A inh,TRPV1 PAM,TRPML1 agonist,Six1-Eya2 inh
O=C(Nc1c2c(nn1-c1ccccc1)CS(=O)(=O)C2)c1ccc2c(c1)OCO2,-5,5,5,?,0.3,0
Cc1cc(-n2c(C)cc(C(=O)COc3ccc(Cl)cc3C(N)=O)c2C)no1,-2,-15,1,.,0.2,-1
CS(=O)(=O)N(CC(=O)Nc1ccc2c(c1)OCCO2)Cc1ccccc1,0,-3,0,-11,0.1,2
C=CCn1cc(C(=O)N2CCN(c3ccccc3)CC2)c(=O)c2cc(S(=O)(=O)N3CCCC3)ccc21,-6,29,-3,-3,0.3,-11
CCCc1cc(=O)[nH]c(SCc2cc(C(=O)OC)c(C)o2)n1,?,15,2,11,1.2,-2
COc1cccc(COC(=O)CCNC(=O)c2ccc(Br)cc2)c1OC,-8,13,-25,-9,0.2,2
O=C(NCCCN1CCCC1)Nc1ccccc1[N+](=O)[O-],-10,-2,-7,7,-0.3,3
COc1ccc(C)cc1NC(=O)CN1CCN(C/C=C/c2ccccc2)CC1,-20,-16,-21,19,2.5,-11
C[C@H]1CN([C@@H](C)CO)C(=O)CCCn2nncc2CO[C@H]1CN(C)S(=O)(=O)c1cccc(F)c1,3,-65*,5,.,-0.4,19
O=C(Nc1cnns1)Oc1ccccc1,-8,1,4,.,-0.4,-8
C=CCNC(=O)c1onc(CSc2cc(C)cc(C)c2)c1C(=O)NCC=C,-6,18,20,-9,2.9,20
CCOC(=O)C1CCN(C(=O)COc2cc(C)c(Br)c(C)c2)CC1,-18,32,7,-10,0.1,3
CCN1CCN(C(=O)C2(NC(=O)Nc3cccc(F)c3)CCCCC2)CC1,-21,4,-1,5,-0.1,15
O=C1c2cccc3cccc(c23)C(=O)N1Cc1ccccc1,-3,3,.,?,0.7,-8
CC(C)c1ccc(NC(=O)CCNS(=O)(=O)c2ccc3[nH]c(=O)oc3c2)cc1,-18,3,-2,-5,-0.5,0
Cc1nnc(Nc2ccc(F)cc2)c2ccccc12,-1,1,1,-6,0.2,-6
N#CCc1nc2ccc(S(=O)(=O)N3CCOCC3)cc2s1,8,-25,-15,3,-0.6,3
Cc1cccc(CSC2=NCCN2S(=O)(=O)c2ccc(F)cc2)c1,-17,54,5,-24,1.5,29
Nc1ncnc2c1ncn2C1OC(CO)C2OC21 (centres undefined),-3,.,6,.,-0.4,1
Cc1ccc(NC(=O)COC(=O)Cc2c(F)cccc2Cl)cc1S(=O)(=O)N1CCOCC1,8,-4,-22,-1,0.4,-14
COc1cc(C=O)ccc1OCCOCCOc1ccc(Cl)cc1,-17,-5,6,5,2.2,13
COc1cc(CC(=O)OCC(=O)Nc2ccc(S(=O)(=O)N3CCCC3)cc2)cc(OC)c1OC,5,0,-8,1,-0.9,-2
O=C(COc1ccccc1)NCC(c1ccco1)N1CCN(c2ccccc2)CC1 (centres undefined),-4,13,-25,0,1.1,-5
CCCCC(Br)C(=O)Nc1ccc(S(=O)(=O)Nc2cc(C)nc(C)n2)cc1 (centres undefined),-2,-11,0,2,0.1,3
COc1ccc(-c2ccc3oc(-c4ccc(OC)cc4)c(C#CCO)c3c2)cc1,-47,57,-8,.,-0.2,2
COC(=O)c1ccc(C(=O)N(Cc2ccccc2)c2ccccc2)cc1,-14,8,-3,-10,2.3,1
O=C(O)c1c(C(=O)N2N=C3/C(=C/c4ccccc4)CCCC3C2c2ccccc2)cccc1[N+](=O)[O-] (centres undefined),-3,21,-19,6,0.0,15
O=C(NCc1ccccc1)C1CCC(=O)N(CCCN2CCCC2=O)C1 (centres undefined),-9,4,-11,9,-0.3,1
CC(C)CNC(=O)CCCSc1nc2ccccc2[nH]1,0,-4,7,20,-0.7,5

# A different layout for some results above.
COc1cc(C=O)ccc1OCCOCCOc1ccc(Cl)cc1
- D2 PAM = -17
- TRPML1 blocker = -5
- CtBP-E1A inh = 6
- TRPV1 PAM = 5
- TRPML1 agonist = 2.2
- Six1-Eya2 inh = 13
COc1cc(CC(=O)OCC(=O)Nc2ccc(S(=O)(=O)N3CCCC3)cc2)cc(OC)c1OC
- D2 PAM = 5
- TRPML1 blocker = 0
- CtBP-E1A inh = -8
- TRPV1 PAM = 1
- TRPML1 agonist = -0.9
- Six1-Eya2 inh = -2
O=C(COc1ccccc1)NCC(c1ccco1)N1CCN(c2ccccc2)CC1 (centres undefined)
- D2 PAM = -4
- TRPML1 blocker = 13
- CtBP-E1A inh = -25
- TRPV1 PAM = 0
- TRPML1 agonist = 1.1
- Six1-Eya2 inh = -5
CCCCC(Br)C(=O)Nc1ccc(S(=O)(=O)Nc2cc(C)nc(C)n2)cc1 (centres undefined)
- D2 PAM = -2
- TRPML1 blocker = -11
- CtBP-E1A inh = 0
- TRPV1 PAM = 2
- TRPML1 agonist = 0.1
- Six1-Eya2 inh = 3

# From PubChem BioAssay
